# AF4-AF9 inh = inhibitors of human MLL-AF4/AF9 interaction | inhibition, % at 10 µM | AlphaScreen, biotin-AF4 peptide binding to FLAG-AF9 | 350,000 compounds, 0.47% hits | P42568;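 active = every replicate reaching a set inhibition limit, whatever the replicate mean, cut at about 25% in these data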;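 note: 0% = plate neutral control median and 100% = total signal loss; the record names both 10 and 1 µM as test concentration; the first replicate is given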
# Target sequence (P42568 whole entry, looked up): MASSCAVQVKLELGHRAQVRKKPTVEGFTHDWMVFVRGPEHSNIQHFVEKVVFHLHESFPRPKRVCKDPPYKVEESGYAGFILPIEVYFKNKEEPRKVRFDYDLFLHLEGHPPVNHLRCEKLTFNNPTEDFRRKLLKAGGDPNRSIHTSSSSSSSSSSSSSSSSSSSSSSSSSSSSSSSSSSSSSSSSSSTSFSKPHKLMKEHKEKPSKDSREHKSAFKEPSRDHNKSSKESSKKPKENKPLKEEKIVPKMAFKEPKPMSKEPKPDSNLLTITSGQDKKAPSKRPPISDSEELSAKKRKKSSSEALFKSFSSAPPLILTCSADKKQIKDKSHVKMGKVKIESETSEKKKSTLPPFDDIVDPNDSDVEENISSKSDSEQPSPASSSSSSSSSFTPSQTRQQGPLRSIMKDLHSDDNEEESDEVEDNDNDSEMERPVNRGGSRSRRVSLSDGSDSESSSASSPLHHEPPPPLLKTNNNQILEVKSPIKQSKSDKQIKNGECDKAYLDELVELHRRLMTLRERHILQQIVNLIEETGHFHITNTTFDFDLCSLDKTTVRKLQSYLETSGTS
# Numbers without * were called inactive.
SMILES,AF4-AF9 inh
CNC[C@H]1OCCCC[C@@H](C)Oc2ccc(NS(=O)(=O)c3cn(C)cn3)cc2C(=O)N([C@H](C)CO)C[C@@H]1C,-17
CC(C)NC(=O)N(C)C[C@@H]1Oc2c(NC(=O)c3cnccn3)cccc2C(=O)N([C@@H](C)CO)C[C@H]1C,-2.0
COc1ccccc1NC(=O)N[C@@H]1CC[C@H](CCn2cc(-c3ccccc3)nn2)O[C@H]1CO,1.4
Cc1ccc(S(=O)(=O)Nc2ccc3c(c2)CC(=O)N([C@@H](C)CO)C[C@H](C)[C@H](CN(C)CC2CCCCC2)O3)cc1,2.6
CC(C)N(C(=O)[C@H]1C[C@H](CC(=O)NC(C)(C)C)C(=O)N2CCc3c([nH]c4cc(-c5ccco5)ccc34)[C@]12C)C(C)C,9.4
C[C@H]1CN([C@@H](C)CO)S(=O)(=O)c2ccc(C#CC3CC3)cc2O[C@@H]1CN(C)C(=O)Cc1ccncc1,2.6
CC1(c2nnnn2Cc2ccccc2)CCC(=O)N1CCc1c[nH]c2ccccc12 (stereo not given),-0.3
O=C(Cc1ccccn1)N[C@@H]1CC[C@@H](CCn2cc(-c3ccccc3)nn2)O[C@H]1CO,1.4

# An excerpt from above in order of the AF4-AF9 inh value, rising.
molecule | AF4-AF9 inh
CNC[C@H]1OCCCC[C@@H](C)Oc2ccc(NS(=O)(=O)c3cn(C)cn3)cc2C(=O)N([C@H](C)CO)C[C@@H]1C | -17
CC(C)NC(=O)N(C)C[C@@H]1Oc2c(NC(=O)c3cnccn3)cccc2C(=O)N([C@@H](C)CO)C[C@H]1C | -2.0
O=C(Cc1ccccn1)N[C@@H]1CC[C@@H](CCn2cc(-c3ccccc3)nn2)O[C@H]1CO | 1.4

# Individual results from the list:
# `CNC[C@H]1OCCCC[C@@H](C)Oc2ccc(NS(=O)(=O)c3cn(C)cn3)cc2C(=O)N([C@H](C)CO)C[C@@H]1C` in AF4-AF9 inh → -17
# `Cc1ccc(S(=O)(=O)Nc2ccc3c(c2)CC(=O)N([C@@H](C)CO)C[C@H](C)[C@H](CN(C)CC2CCCCC2)O3)cc1` in AF4-AF9 inh → 2.6

# Some of the compounds tested, so the mix of outcomes need not match the whole.
